High-throughput results from PubChem.
HIV Env fusion: inhibitors of HIV-1 Env-driven cell-cell fusion, primary screen, HeLa-JRFL effector, CEM21 target cells, luciferase | inhibition, % at 12.3 µM | actives 1.1% (n = 360,000) | AID 651610, 2012;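 active = mean replicate inhibition score of at least 50 and every replicate individually at or above 50; inconclusive = only one of the two criteria met; inactive = mean below 50 and not all replicates reaching 50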;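 also: 0% = plate neutral controls and 100% = maraviroc near 300 nM; one replicate is shown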
Rce1 inh: yeast Rce1p protease inhibitors, primary screen, biochemical, fluorescence, cell-free homogeneous; CAAX prenyl protease 2 (Saccharomyces cerevisiae (strain ATCC 204508 / S288c)), Q03530; AID 2563, 2010; calls only; yeast membranes, quenched prenylated peptide cleavage fluorescence; actives 0.27% (n = 290,000);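 active = fall in fluorescence gain of 50% or more versus controls, with final raw signal at or below 3038400; inconclusive = same 50% fall but final raw signal above 3038400; inactive = fall in fluorescence gain under 50%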;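 also: plate controls were neutral control wells for no effect and wells lacking membranes for full effect; tested at 10 µM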
Target sequence (Q03530 whole entry, looked up): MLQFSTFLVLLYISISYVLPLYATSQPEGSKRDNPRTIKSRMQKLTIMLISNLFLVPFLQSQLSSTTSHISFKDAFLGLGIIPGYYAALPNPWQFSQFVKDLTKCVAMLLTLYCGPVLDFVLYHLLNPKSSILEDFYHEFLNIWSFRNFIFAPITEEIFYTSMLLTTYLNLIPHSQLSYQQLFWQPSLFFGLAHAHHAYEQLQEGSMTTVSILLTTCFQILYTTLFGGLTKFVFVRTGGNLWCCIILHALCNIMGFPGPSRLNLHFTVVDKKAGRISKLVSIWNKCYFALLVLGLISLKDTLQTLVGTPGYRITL
MT1-MMP act inh: blockers of MT1-MMP proenzyme processing, primary screen, HT1080 RFP-PRO-GFP cells, GFP/RFP fluorescence | GFP/RFP ratio fluorescence, overnight; percent of plate control window, DMSO zero | Matrix metalloproteinase-14 (Homo sapiens), P50281 | actives 0.061% (n = 360,000) | GFP/RFP ratio change, % at 20 µM;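 active = GFP/RFP ratio change of at least 30% with cell ATP level not reduced by more than half and red fluorescence within 50% of control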; also: strong numbers were not always called active
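Read-out: GFP/RFP fluorescence ratio; Test system: RFP-PRO-GFP reporter HT1080 cells; Compound dosing: single-point 20 µM compound, 1% DMSO; Times: overnight compound exposure at 37 °C.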
PABP polyA inh: PABP poly(A) RNA binding inhibitors, primary screen, biochemical, fluorescence polarization, uHTS; actives 1% (n = 290,000); Polyadenylate-binding protein 1 (Homo sapiens), P11940; inhibition, % at 35 µM;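 active = 50% or more with normal probe brightness, or confirmed in later tests; inconclusive = above 50% with abnormal brightness, or retests that disagree; inactive = below 50% or failed in later tests; about a fifth of its hits are not listed in these tables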;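 also: calls also rest on retests at 20 µM and on dose response follow-up; controls were probe without protein and protein plus probe with vehicle; some compounds called inactive have numbers as strong as hits; many hits fall short of the cut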
CSC inhib: cancer stem cell viability inhibitors, primary screen, luminescence | cancer stem cell-like cells viability | inhibition, % at 7.5 µM | actives 1.1% (n = 300,000);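 active = mean at 75% or more and at least half the replicates too; inconclusive = mean and replicates disagree; tested in HMLE shEcad cells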;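 also: 0% = median of negative and 100% = median of positive control wells; the first replicate is given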
UUG fidelity: modulators of yeast start codon fidelity, primary screen, whole organism, S. cerevisiae, single point, plate reader | S. cerevisiae UUG-firefly luciferase reporter, luminescence/redox ratio | activity score, % at 18.7 µM | actives 0.13% (n = 350,000);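 active = replicate mean at a twofold rise or more, about +100% in these data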;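 also: firefly luciferase made from a UUG start codon reports start codon fidelity; reporter light over untreated wells divided by growth signal over untreated wells; some hits fall short of that in this replicate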
eIF4H inh: human eIF4H binding inhibitors, primary screen, translation initiation inhibitor project, biochemical, uHTS, fluorescence polarization. eIF4H fluorescence polarization binding assay. actives 0.94% (n = 290,000). inhibition, % at 35 µM. Eukaryotic translation initiation factor 4H (Homo sapiens), Q15056. AID 2012, 2009;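 active = 50% or more with normal probe brightness, or confirmed in later tests; inconclusive = above 50% with abnormal brightness, or retests that disagree; inactive = below 50% or failed in later tests; about a fifth of its hits are not listed in these tables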;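 also: calls also rest on retests at 20 µM and on dose response follow-up; 0% = protein and probe with vehicle and 100% = probe without protein; strong numbers were not always called active; many hits fall short of the cut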
MT1-MMP act inh RFP: also measured in MT1-MMP act inh; calls as there; RFP signal change, %; measured here: RFP expression control read;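 0 = vehicle wells; hits needed this value within 50% of zero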
* hit, by the source's call; i = inactive; ? = inconclusive; nt = not tested or not shown; + = active, no number; & = joins results of further samples; [ ] = remark or other dose. The list is partial. The share of hits here may be higher or lower than overall.

Compound	HIV Env fusion	Rce1 inh	MT1-MMP act inh	MT1-MMP act inh RFP	PABP polyA inh	CSC inhib	UUG fidelity	eIF4H inh
N#CC1=C(N)N2C(=C(C#N)C1c1cccc(Br)c1)Nc1ccccc12 (stereo not drawn)	64.8*	nt	-28.1	-34.0	6.1	58.4	nt	-9.6
O=C(NCCCc1ccccc1)c1cc([N+](=O)[O-])ccc1Cl	-20.7	i	-4.1	0.0	8.4	8.8	-19.0	-3.5
COC(=O)c1ccc(OCC(O)CN2CCN(C(=O)c3ccco3)CC2)c(OC)c1 (stereo not drawn)	0.0	i	1.7	5.4	-7.0	nt	-3.4	-5.7
COc1ccc(/C=N/Nc2nc3ccccc3[nH]2)cc1OC	5.2	i	7.8	-0.5	-0.1	4.3	5.9	-4.9
O=C(COc1ccccc1Cl)NCCNC(=O)c1ccco1	-19.2	i	-0.6	-2.1	4.4	-13.2	4.8	-8.8
CCOC(=O)c1cc(CC)sc1NC(=O)COC	7.5	i	14.5	0.9	2.8	-16.7	2.9	0.4
COC(=O)NNC(=O)/C=C/c1ccccc1	-8.1	i	6.1	5.2	-0.2	-3.4	nt	-2.2
C/C(=N\NC(=O)c1c(-c2ccccc2Cl)noc1C)c1cccc(NC(=O)C(C)C)c1	-10.1	i	5.6	1.6	-3.2	-7.7	-8.0	-4.2
C=CCNC(=O)/C(C#N)=C\c1cc(Cl)c(OCC)c(OC)c1	19.4	i	2.2	2.0	2.1	2.9	-18.6	-21.2
CCCC(=O)Nc1c(-c2ccccc2Cl)c(=O)c2ccccc2n1C	0.6	i	-1.2	0.4	6.1	4.0	-10.7	0.1
Cc1ccc(OC(=O)CCC(=O)Nc2ccc(C)c(C)c2)cc1	-0.7	i	0.6	6.8	nt	-11.1	nt	nt
Cc1nn(-c2ccccc2)c2c1C(c1ccncc1)C(C#N)=C(N)O2 (stereo not drawn)	nt	i	2.4	4.5	14.3	11.6	nt	-6.6
Cc1ccc(NC(=O)c2nc[nH]c2C(=O)N(C)CCO)cc1	8.3	nt	-1.9	0.6	nt	nt	-20.1	nt
CC(C)(C)c1ccc(OCC(=O)NCC(c2cccs2)N2CCOCC2)cc1 (stereo not drawn)	62.3*	i	-4.1	-15.6	nt	-11.5	-9.0	nt
CN(C)S(=O)(=O)c1ccc(N2CCCC2)c(C(=O)NCC2CCCO2)c1 (stereo not drawn)	9.6	i	-1.1	-1.4	nt	-3.9	-5.6	nt
NS(=O)(=O)c1cc(C(=O)Nc2ccc3c(c2)CCC3)ccc1Cl	-44.0	i	-0.2	-3.0	8.2	-5.1	-10.4	13.2
O=C(N/N=C/c1ccccc1O)c1cccc2ccccc12	2.6	i	-5.1	-11.8	-5.0	nt	-16.9	8.0
OCCNc1nc2ccccc2n1-c1ncnc2sc3c(c12)CCC3	nt	i	5.0	-0.7	-9.1	nt	-13.7	-5.2
O=Cc1cn[nH]c1-c1ccccc1	16.8	i	-5.7	-4.0	9.5	nt	nt	-5.3
CCN(CC)c1ccc(C2C(C(=O)Nc3ccccn3)=C(C)NC3=C2C(=O)CC(C)(C)C3)cc1 (stereo not drawn)	21.1	i	-13.1	-1.9	14.4	-22.0	0.7	7.0
COc1ccc(NC(=S)NCc2ccc(F)cc2)cc1	-26.4	i	2.3	-2.6	2.8	-8.3	-16.3	6.7
CC12CCC(=O)N1C(C(=O)N1CCN(c3ccccc3)CC1)CS2 (stereo not drawn)	-0.8	i	0.7	-3.0	nt	0.1	10.2	nt
Cc1ccc(-n2c(SCC(=O)Nc3nccs3)nc3c(c2=O)SCC3)cc1	-64.5	i	4.0	-0.2	-2.5	-7.0	-22.6	-2.6
CCOC(=O)c1c(O)c2c([nH]c1=O)CCCC2	-24.8	i	7.0	7.1	3.5	-2.8	-17.9	-5.2
COc1cc(C(=O)O)ccc1OCc1c(C)noc1C	-102.1	i	-1.3	4.2	-12.1	1.8	-9.5	-3.9
CCNC(=O)c1c(NC(=O)c2cc(-c3cc(C)ccc3O)n[nH]2)sc2c1CCCC2	11.8	i	1.0	-1.5	-2.2	?	nt	2.4
CSc1ncc(C(=O)Nc2cccnc2)c(C(F)(F)F)n1	-0.6	i	-3.1	3.7	9.1	-3.3	-31.6	34.4
Cc1cc(SCC(=O)N/N=C/c2ccc(C(=O)O)cc2)nc2ccccc12	-1.5	i	4.2	4.7	5.6	-5.3	-0.3	2.3
COc1cccc(CN(CCC(C)C)S(=O)(=O)c2cc(Br)ccc2Br)c1	29.5	nt	-2.0	-5.7	nt	nt	1.5	nt
Cc1cccnc1NC(=O)C1CCC1	nt	i	0.8	5.8	10.0	-13.8	0.8	-2.2
CCC/C=C(\CCC)C(NS(=O)(=O)c1cccc2cccnc12)c1ccc(C(=O)OC)cc1 (stereo not drawn)	90.0*	i	nt	nt	-7.5	-14.1	nt	-12.4
C=CCOc1c(CNc2ccc(C(=O)O)cc2)cccc1OC	-0.9	i	3.1	6.7	4.0	15.8	11.2	-4.0
CCc1ccc(N(C(=O)c2csnn2)C(C(=O)NC(C)(C)C)c2ccccn2)cc1 (stereo not drawn)	18.8	i	3.5	-7.6	8.2	-4.6	nt	-6.6
CCCCCC(=O)N1C[C@H](O)[C@@H](n2cc(COC(=O)c3ccccc3)nn2)C[C@@H]1c1ccc(OC)cc1	3.3	nt	5.8	2.8	nt	nt	-0.2	nt
CC(=O)Nc1ccc(S(=O)(=O)N(C)CC(=O)OC(C)C(=O)NC2(C#N)CCCCC2)cc1 (stereo not drawn)	-8.0	nt	-1.0	4.6	nt	nt	2.6	nt
Cc1cccc(Nc2ccccc2C(=O)OCC(=O)N2CCOCC2)c1C	15.1	i	-0.2	-0.9	-3.0	-23.8	-3.9	0.1
CCOC(=O)c1sc(=NC(=O)c2ccc(OC)c(OC)c2)n(C)c1C	nt	i	10.6	0.2	3.7	15.4	12.3	-10.9
COC(=O)c1ccc2c(c1)nc(C)n2CCO	nt	i	1.4	2.4	7.5	0.5	-29.6	-8.6
NS(=O)(=O)c1ccc(CCNc2ccn3nc(-c4cccc(C(F)(F)F)c4)cc3n2)cc1	?	nt	4.4	-10.8	nt	nt	-11.5	nt
OC1(c2cccc(C(F)(F)F)c2)CCN(c2ccc(-c3ccccc3)nn2)CC1	-73.7	nt	2.6	1.7	-0.2	5.3	-21.3	-6.8
COCCSc1nnc(NS(=O)(=O)c2ccc(C)cc2)s1	-8.6	i	-4.4	0.2	-1.5	-6.4	-20.0	2.4
COc1ccc(C(=O)c2c(-c3ccc(OC)cc3)oc3ccc(-c4ccc(OC)nc4)cc23)cc1	11.6	i	8.8	-4.4	nt	20.2	-11.0	nt
O=C1CCCC(=O)C1=Cc1c[nH]c2ccccc12	nt	i	6.3	-0.6	10.1	-9.4	-7.6	-7.7
COc1ccc(CNc2nc3ccccc3n2C(C)C)c(O)c1	19.6	i	1.7	-9.9	10.4	-4.1	-8.4	0.2
C[C@H]1CN([C@@H](C)CO)C(=O)c2cccc(NC(=O)c3nc4ccccc4s3)c2O[C@H]1CN(C)C(=O)Nc1ccc(F)cc1	-10.3[16.7 µM]	nt	-2.9	-2.9	nt	9.2	3.5&-12.6	nt
CC1(C)CN=C(N(Cc2ccccc2)C(=O)Nc2ccccc2)S1	-16.6	i	0.2	3.7	-0.1	-16.8	-24.6	9.5
Cc1ccc(Cn2nc(C)c(C(=O)NCC(c3ccc(F)cc3)N3CCOCC3)c2Cl)cc1 (stereo not drawn)	nt	nt	5.4	-4.6	nt	-2.0	3.1	nt
O=C(Nc1ccc(F)c(Cl)c1)C1CC(=O)N(Cc2ccco2)C1 (stereo not drawn)	10.1	nt	3.9	-0.5	nt	-13.7	13.5	nt
O=c1cc(CO)occ1OCc1cccc(C(F)(F)F)c1	-36.2	i	2.3	2.5	-16.9	-4.3	-13.6	2.8
CCOc1ccccc1NC1=NC2CS(=O)(=O)CC2S1 (stereo not drawn)	7.1	i	0.9	1.3	8.0	-14.0	nt	1.4
COc1ccc(CNC(=O)CN(C)Cc2ccc(C(C)(C)C)cc2)cc1	27.6	i	-1.9	-4.4	-4.6	1.8	-10.3	-6.4
COc1ccc(-c2c(-c3ccsc3)oc3ccc(N4CCOCC4)cc23)cn1	-11.4	+	1.7	3.7	nt	19.9	-6.4	nt
CSCC[C@H](NC(=O)Cc1c(C)c2c(cc(C)c3c(C)c(C)oc32)oc1=O)C(=O)O	19.2	i	-0.9	-2.8	13.8	-3.9	-10.0	-2.3
CCOc1ccc(C(=O)Nc2nc(C)cc(C)n2)cc1[N+](=O)[O-]	1.1	i	-4.9	4.1	-10.0	-17.0	-8.9	-7.0
CCOC(=O)C1CCN(C(=O)C(C)N(c2ccc(Oc3ccccc3)cc2)S(C)(=O)=O)CC1 (stereo not drawn)	6.2	i	-2.9	-21.3	-2.2	nt	nt	5.8
C[C@H](CO)N1C[C@H](C)[C@@H](CN(C)C)Oc2c(NC(=O)C3CC3)cccc2C1=O	10.7[16.7 µM]	nt	1.0	2.7	nt	-9.6	-14.1&-18.2	nt
O=C(CCCO)NC1Cc2ccccc2C1	-0.1	i	-0.4	2.7	5.7	9.3	nt	-9.2
O=C(Nc1ccc(N2CCN(C(=O)c3ccco3)CC2)c(Cl)c1)c1c(F)c(F)c(F)c(F)c1F	19.2	i	-3.4	-13.4	6.0	7.6	-1.1	-10.0
O=C1Cc2ccccc2N1c1c(Cl)cccc1Cl	nt	i	0.2	-2.3	0.6	4.1	-5.7	-4.7
COc1ccc(NS(=O)(=O)c2ccc3oc(SC4CCOC4=O)nc3c2)cc1 (stereo not drawn)	nt	i	-2.7	0.5	-2.8	-4.0	16.0	-17.8

Further entries:
Compound	HIV Env fusion	Rce1 inh	MT1-MMP act inh	MT1-MMP act inh RFP	PABP polyA inh	CSC inhib	UUG fidelity	eIF4H inh
CC(=O)N1CCc2cc(Br)cc(S(=O)(=O)NCC3CCCO3)c21 (stereo not drawn)	nt	i	-0.4	1.6	-3.6	2.9	-4.0	0.7
COc1ccc(OC)c2[nH]c(=O)c(CCNC(=O)Cc3cccs3)cc12	-22.5	i	0.7	4.5	-3.9	-32.2	nt	-6.2
CN1C(C(=O)NCc2cccc(Br)c2)CC2Cn3c(nc4cc5ccccc5cc43)C21 (stereo not drawn)	13.4	i	7.5	-7.5	-6.7	0.1	-12.4	-2.3
COc1ccc(-c2cn(CCN)c(-c3ccncc3)n2)cc1	-26.4	nt	1.0	4.1	nt	-3.0	-4.0	nt
